Beta apoptosis: blocks beta cell apoptosis; 0.8% of 300,000 active; INS-1E cytokine-induced death, ATP luminescence, 48 h; percent of positive-control rescue, neutral wells zero; protection from apoptosis, % (no concentration beside the values);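 active = all replicates at 75% or more, or half of them and the mean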;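 note: 0% = cytokine-treated negative control wells and 100% = positive control rescue; higher means more ATP so stronger rescue from cytokine killing; wells of about 40 µL received 100 nL stock; the first replicate is given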
UCH37 inh: blocks the human deubiquitinase UCH37; Q9Y5K5; purified proteasome/UCH37, Ub-AMC cleavage fluorescence; inhibition, % (no concentration beside the values); 0.33% of 330,000 active;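 active = mean of two replicates above 20%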;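 note: 0% = compound-free wells with enzyme and 100% = wells lacking proteasome; stock transfer was 100 nL into about 20 µL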
Target sequence (Q9Y5K5 whole entry, looked up): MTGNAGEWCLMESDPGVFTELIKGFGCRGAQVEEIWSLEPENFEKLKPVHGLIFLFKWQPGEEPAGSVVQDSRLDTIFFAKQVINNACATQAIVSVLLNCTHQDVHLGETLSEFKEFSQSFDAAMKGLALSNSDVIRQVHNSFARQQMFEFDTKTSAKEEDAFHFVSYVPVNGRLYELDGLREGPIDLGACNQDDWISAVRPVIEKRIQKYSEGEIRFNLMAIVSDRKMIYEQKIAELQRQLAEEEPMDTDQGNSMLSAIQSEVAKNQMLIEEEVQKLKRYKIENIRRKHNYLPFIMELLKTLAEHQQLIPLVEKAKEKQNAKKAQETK
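System: Proteasome-associated human UCH37 deubiquitinase; Input: 0.15 nM proteasome in added enzyme buffer; Also added: Ub-AMC substrate from 1 µM stock; Incubation: 30 min compound-proteasome preincubation then 25 min substrate reaction, room temperature; Detection: fluorescence, ex 355 nm, em 460 nm; Read-out: % inhibition of Ub-AMC cleavage fluorescence; Benchmarks: no-proteasome and no-compound wells.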
T cruzi inh: blocks replication of Trypanosoma cruzi; T. cruzi beta-gal in NIH3T3, luminescence, 90 h; inhibition, % (test concentration not listed); 1.4% of 300,000 active; AID 1885;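 active = mean inhibition across valid replicates above about 55%, limit read from the data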;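 note: signal also drops with host cell toxicity which is not excluded here; 0% = plate median of DMSO wells and 100% = zero luminescence signal; higher percent means less beta-gal luminescence so fewer parasites; stock transfer was 50 nL into about 50 µL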
rRNA inh HTS: selective bacterial rRNA inhibition in E. coli; E. coli WT GFP vs humanized-ribosome RFP mutants, fluorescence, 24 h; hits give low values; DMSO median 0, no signal -100; AID 720706; 1.6% of 350,000 active; GFP signal change (wild-type ribosome), % (no concentration beside the values);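 active = significant combined selectivity score with lowered wild-type GFP, culture density cut under 30%, mutant RFP and density less affected; inactive = any of these conditions unmet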; note: one replicate is shown; some compounds called inactive have numbers as strong as hits
A1 inh: inhibitors of the anti-apoptotic protein A1, read as caspase activation | MEF A1-2A-BIM cells, Caspase-Glo 3/7 luminescence, 3 h; percent of clofoctol response, vehicle zero | caspase activation, % (test concentration not listed) | 0.066% of 330,000 active | AID 2462;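 active = over half of replicate activation scores above 10%, or exactly half above 10 with the replicate mean above 10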;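 note: wells of about 30 µL received 50 nL stock; many hits fall short of the cut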
Ecoli growth: blocks Escherichia coli growth; OD600, 23 h; hits give low values; OD600 absorbance (no concentration beside the values); 0.21% of 330,000 active; AID 1053175;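 active = OD600 absorbance below the run mean of sample wells minus 3.6 SD, in any replicate, cut at about 0.56 in these data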;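 note: stock transfer was 300 nL into about 60 µL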
FGF22 binding: shifts melting point of recombinant human FGF22 | Q9HCT0 | recombinant FGF22 thermal shift, SYPRO orange fluorescence; percent of sucrose octasulfate shift, DMSO zero | calls only at 9.99 µM | 1.5% of 340,000 active | AID 651658;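 active = melting point raised past a set limit in the mean and every replicate; three in four hits are not shown here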
Target sequence (Q9HCT0 whole entry, looked up): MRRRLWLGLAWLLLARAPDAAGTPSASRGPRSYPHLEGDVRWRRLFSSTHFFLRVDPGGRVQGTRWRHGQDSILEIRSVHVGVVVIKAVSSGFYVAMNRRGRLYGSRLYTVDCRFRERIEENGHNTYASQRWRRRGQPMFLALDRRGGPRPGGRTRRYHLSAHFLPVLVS
MLL AF4-AF9 inh: MLL-AF4/AF9 protein interaction inhibition; P42568; AlphaScreen, biotin-AF4 peptide binding to FLAG-AF9; inhibition, % at 10 µM; 0.47% of 350,000 active; AID 651704;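 active = every replicate reaching a set inhibition limit, whatever the replicate mean, cut at about 25% in these data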;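 note: 0% = plate neutral control median and 100% = total signal loss; the record names both 10 and 1 µM as test concentration; the first replicate is given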
Target sequence (P42568 whole entry, looked up): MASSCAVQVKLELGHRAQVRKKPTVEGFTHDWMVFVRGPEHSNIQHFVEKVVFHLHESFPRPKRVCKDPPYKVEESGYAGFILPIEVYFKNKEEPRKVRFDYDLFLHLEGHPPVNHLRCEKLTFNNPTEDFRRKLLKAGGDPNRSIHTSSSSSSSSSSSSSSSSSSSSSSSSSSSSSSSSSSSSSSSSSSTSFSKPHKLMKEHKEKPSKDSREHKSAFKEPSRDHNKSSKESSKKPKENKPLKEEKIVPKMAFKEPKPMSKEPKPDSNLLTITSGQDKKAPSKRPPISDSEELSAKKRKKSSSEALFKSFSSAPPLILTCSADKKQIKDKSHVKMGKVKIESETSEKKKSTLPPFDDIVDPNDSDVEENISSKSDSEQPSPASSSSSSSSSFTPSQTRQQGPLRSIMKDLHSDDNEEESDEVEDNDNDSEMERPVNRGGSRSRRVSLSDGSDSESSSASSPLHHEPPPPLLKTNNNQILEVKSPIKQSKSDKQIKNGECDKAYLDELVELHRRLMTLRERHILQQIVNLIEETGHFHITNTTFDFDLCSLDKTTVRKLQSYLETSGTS
rRNA inh HTS OD600: further read-out of rRNA inh HTS, marked with its call; OD600 change, %; measured here: OD600 growth;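 optical density of the mix in the first replicate; 0 = DMSO median and -100 = no signal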
rRNA inh HTS RFP: further read-out of rRNA inh HTS, marked with its call; RFP signal change, %; measured here: RFP humanized mutant strains;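 first replicate; 0 = DMSO median and -100 = no signal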
* hit, by the source's call; i = inactive; . = not tested or not shown. These rows are one share of the data; rates above refer to the full screens.

SMILES	Beta apoptosis	UCH37 inh	T cruzi inh	rRNA inh HTS	rRNA inh HTS OD600	rRNA inh HTS RFP	A1 inh	Ecoli growth	FGF22 binding	MLL AF4-AF9 inh
COc1ccc(N(CC(=O)N2CCN(c3cccc(C)c3C)CC2)S(=O)(=O)c2c(C)noc2C)cc1	-2	4.9	33	-2	-4	1.8	-0.2	0.71	i	-1.7
CCCCNc1nc2ccccc2n1CC(=O)Nc1ccc2c(c1)OCCO2	0	3.2	2	7	5	-0.2	0.8	0.71	i	1.3
COc1nc(Nc2ccc(-c3nc4ccccc4o3)cc2)nc(N2CCOCC2)n1	10	-93	20	.	.	.	0.0	0.71	.	.
COCOc1ccc(C=O)cc1OCOC	-3	1.5	-13	.	.	.	-0.5	0.71	i	-71
COC(=O)c1ccccc1-n1c(C)nc(=O)c(-c2ccccc2)c1C	2	1.3	-9	2	13	-0.7	1.4	0.68	i	-0.2
COc1ccc(CNC(=O)CCn2ccc3cc(S(=O)(=O)N4CCCC4)ccc32)cc1	-1	-0.7	0	-3	-14	-0.8	0.8	0.63	.	1.1
Nc1ncnc2c1ncn2C1OC(C(=O)NC2CC2)C(O)C1O (centres undefined)	-3	1.0	.	3	16	3.1	-0.1	0.68	i	48*
Cc1nc2nc(Cc3ccccc3)[nH]n2c(=O)c1Cl	-8	2.7	.	.	.	.	-1.4	0.78	.	.
CC(C)C(C(=O)NCC1CCCO1)N(C(=O)CNS(=O)(=O)c1ccccc1)c1ccc(F)cc1 (centres undefined)	2	2.2	-6	3	6	0.6	-0.8	0.68	i	-5.8
Cc1cccc(NC(=O)Nc2ccc(S(=O)(=O)Nc3onc(C)c3C)cc2)c1	2	1.0	.	-14	-5	-0.9	-12	0.64	i	0.2
COc1ccc(NC(C)=O)cc1NC(C)C(=O)Nc1ccc(F)c(F)c1F (centres undefined)	-5	1.0	5	.	.	.	2.1	0.68	.	.
Cn1c(Nc2ccccc2)nc2ccccc21	6	3.1	-10	5	6	-2.7	-1.1	0.69	i	5.3
CC(C)c1nc(SCC(=O)N2CCN(c3ccccc3)CC2)c2c(=O)n(C)c(=O)n(C)c2n1	.	.	5	4	5	3.2	.	.	i	-2.5
Cc1ccc(C(=O)N/C(=C\c2ccc(-c3ccccc3[N+](=O)[O-])o2)C(=O)NCCN(C)C)cc1	3	12	20	5	-1	5.7	0.6	0.69	i	22
c1coc(CNCC2OCCc3ccccc32)c1 (centres undefined)	0	5.7	1	.	.	.	0.8	0.66	.	.
CCCc1cc(Nc2ccccc2C)n2ncnc2n1	-6	-1.1	1	-14	-14	-2.1	0.6	0.65	i	-4.9
COc1cccc2cc(-c3nc4ccccc4[nH]3)c(=O)oc12	.	-11	0	-1	12	-1.5	-7.7	0.69	i	-1.8
O=C1CCc2cc(NS(=O)(=O)c3ccccc3)cc3c2N1CC3	0	0.8	0	6	-12	3.8	-0.3	0.65	i	-11
Cc1ccc(NC(=O)c2ccc3c(c2)S(=O)(=O)c2ccccc2C3=O)cc1S(=O)(=O)N1CCOCC1	7	0.3	-16	8	3	-3.0	-0.6	0.72	i	-24
N#CC1=C(N)Oc2n[nH]c(-c3ccccc3)c2C1c1ccsc1 (centres undefined)	-3	-0.4	-20	.	.	.	-0.6	0.76	.	.
O=C(Nc1ccccc1)Nc1ccc2ccccc2n1	-4	-0.9	-9	1	4	-0.6	-0.3	0.71	i	-1.6
CCC(=O)N(Cc1cc(=O)[nH]c2ccccc12)c1cccc(C)c1	5	3.8	.	.	.	.	0.0	0.7	.	.
COc1ccccc1C(=O)NC(=O)COC(=O)C1CC2CCCC(C1)C2=O (centres undefined)	-4	-1.7	-6	4	1	3.7	0.4	0.72	i	-2.8
COc1ccc(CC(=O)N(Cc2ccccc2)c2cccc(C)c2)cc1OC	-3	2.4	19	-15	-37	-5.6	0.0	0.74	i	3.2
COc1ccc(-n2c(SCC(=O)Nc3nccs3)nnc2-c2ccc(Cl)cc2)cc1	.	-3.1	.	15	4	-0.7	.	0.74	i	0.7
CCCSc1nc2c(cnn2-c2ccc(Cl)cc2)c(=O)[nH]1	-3	1.1	-2	.	.	.	1.1	0.66	.	.
COc1cccc(NC(=O)Cn2nnc(C(=O)NCc3cccs3)c2N)c1	.	5.4	-9	2	4	0.9	1.3	0.67	i	2.1
Cc1ccc([N+](=O)[O-])cc1N/C=C1\CCCCC1=O	2	3.7	-1	11	14	3.0	0.1	0.74	i	11
Nc1ccc(C(CC(=O)O)n2cccc2)cc1 (centres undefined)	.	-2.0	-12	8	15	0.2	0.0	0.66	i	-14
CCn1c(=N)n(CC(=O)C23CC4CC(CC(C4)C2)C3)c2ccccc21	3	1.9	58*	.	.	.	0.1	0.68	.	.
Cc1cc(C)c(C)c(S(=O)(=O)NCCCN2CCCC2=O)c1C	4	3.2	-1	-4	0	-2.1	0.0	0.7	i	-1.2
O=C(COc1ccc2ccccc2c1)N/N=C/c1ccccn1	-3	.	-8	-23	-27	-6.7	-0.1	.	i	-1.8
COc1cc(NC(=O)CSc2nc3[nH]ncc3c(=O)n2-c2ccccc2C)cc(OC)c1OC	.	2.6	-15	3	4	2.3	0.3	0.71	i	-7.0
Clc1ccc(Nc2nc(-c3ccncc3)cs2)cc1	-2	49*	57*	.	.	.	0.0	0.67	.	.
Cc1cc(C)nc(NC(=O)c2cc3ccccc3o2)n1	5	2.5	10	11	1	-0.4	-0.1	0.71	i	-1.9
Cc1cc(C)cc(Oc2ccc(NC(=O)C3CC=CCC3C(=O)O)cc2)c1 (centres undefined)	-5	4.2	-17	-28	-38	-0.8	0.7	0.68	i	-3.0
CCOC(=O)CSc1nnc(CNC(=O)Cc2ccccc2)n1C	-1	0.5	0	.	.	.	0.6	0.68	.	.
COc1ccc(C(O)c2nc3ccccc3n2C)cc1OC (centres undefined)	36	4.0	-35	.	.	.	-0.6	0.68	.	.
CC(=O)c1c(C)nc(-c2ccc(Cl)cc2Cl)n1O	.	1.1	-4	.	.	.	1.3	0.7	.	.
CCCN1CCC(=O)N([C@H](CO)c2ccccc2)CC1	-4	-0.4	-8	.	.	.	0.1	.	.	.

Molecules shown so far with a COOH group:
SMILES	Beta apoptosis	UCH37 inh	T cruzi inh	rRNA inh HTS	rRNA inh HTS OD600	rRNA inh HTS RFP	A1 inh	Ecoli growth	FGF22 binding	MLL AF4-AF9 inh
Nc1ccc(C(CC(=O)O)n2cccc2)cc1 (centres undefined)	.	-2.0	-12	8	15	0.2	0.0	0.66	i	-14
Cc1cc(C)cc(Oc2ccc(NC(=O)C3CC=CCC3C(=O)O)cc2)c1 (centres undefined)	-5	4.2	-17	-28	-38	-0.8	0.7	0.68	i	-3.0

(list continues)
SMILES	Beta apoptosis	UCH37 inh	T cruzi inh	rRNA inh HTS	rRNA inh HTS OD600	rRNA inh HTS RFP	A1 inh	Ecoli growth	FGF22 binding	MLL AF4-AF9 inh
COc1ccc(COC(=O)C2=C(C)NC(=O)NC2c2ccc(O)c(OC)c2)cc1 (centres undefined)	8	5.1	-4	-22*	-15*	6.1*	-0.7	0.67	i	2.5
O=C(CCN1C(=O)/C(=C\c2ccc(F)cc2)SC1=S)Nc1ccc(O)cc1	-9	2.1	-7	12	5	-0.6	0.7	0.71	i	1.9
FC(F)(F)c1cccc(CN2CCN(c3ncccn3)CC2)c1	-2	4.0	3	2	7	4.6	0.3	0.66	i	.
COC(=O)CCCC1=CC2=C(c3ccccc3)C(=O)C(C)(OC(=O)C3CCCC3)C(=O)C2=CN1C1CCCC1 (centres undefined)	6	2.8	14	6	11	14	1.2	0.69	i	8.0
CCOC(=O)CSc1nc2sc3c(c2c(=O)n1CC)CC(C)(C)OC3	-7	-3.9	6	.	.	.	0.0	0.68	.	.
CCc1ccc(CNC(=O)C2CCCN(S(=O)(=O)N(CC)c3ccccc3)C2)cc1 (centres undefined)	4	-0.2	-3	2	9	-2.7	0.0	0.66	i	1.5
CN(C)c1ccc(NC(=O)Nc2csc3ccccc23)cc1	11	.	30	.	.	.	-0.5	.	i	18
COc1ccc(C(=O)C2CCCN(C(=O)c3ccccc3C(C)=O)C2)cc1F (centres undefined)	2	1.2	-15	-3	-4	2.7	-0.7	0.69	i	-0.4
COc1ccccc1C(=O)O/N=C(\N)c1ccc(Cl)cc1	-4	0.7	3	.	.	.	-1.0	0.71	.	.
CCOc1cc(/C=N/NC(=O)COc2nc(C)cc(COC)c2C#N)ccc1O	0	.	-1	-10	-9	-1.5	0.3	.	i	-0.6
C/C(=C1/SC(=S)N(CCC(=O)O)C1=O)c1ccc(O)cc1	10	4.0	-3	.	.	.	-0.3	.	.	.
O=C(Nc1ccccc1)Nc1ncc([N+](=O)[O-])s1	.	10.0	-22	-67	-77	-21	.	0.36*	.	5.1
c1cc2c3c(cccc3c1)C(N1CCCCCC1)=N2	3	-43	9	.	.	.	0.6	0.65	.	.
C=CCn1c(SCC(=O)OCc2ccccc2)nc2c1c(=O)n(C)c(=O)n2C	-11	7.4	-6	.	.	.	0.7	0.7	.	.
O=C(c1ccc(Cl)cc1)N1CCC(O)(CSc2ccccc2)CC1	-4	1.2	11	.	.	.	-0.6	0.77	.	.
CCOc1ccc(S(=O)(=O)N(C)c2ccc(OCC(=O)Nc3nccs3)cc2)cc1	-4	3.1	-22	-18	-14	1.4	-0.8	0.71	i	2.5
Cc1c(C(=O)NCc2cccs2)oc2ccc(Br)cc12	-4	1.5	-8	.	.	.	0.3	0.65	.	.
COC(=O)Cn1c(=O)c2c(nc3n2CCCN3CCc2ccccc2)n(C)c1=O	-4	3.0	9	1	-1	-1.8	1.2	0.67	i	3.7
Cc1ccc(Cl)cc1N1CCN(CC(=O)Nc2ccc3[nH]c(=O)[nH]c3c2)CC1	-5	2.1	9	.	.	.	0.1	0.69	.	.
CN1CCN(c2ccc(S(=O)(=O)N3CCCCC3)cc2NC(=O)Cc2c(F)cccc2Cl)CC1	-9	0.5	54	-5	2	6.7	0.0	0.71	i	9.4
CCn1c(/C=C/c2cccc([N+](=O)[O-])c2)nc2ccccc2c1=O	0	3.1	11	.	.	.	0.0	0.68	.	.
CCCCOC1(c2ccccc2)OC(=O)c2ccccc21 (centres undefined)	0	3.7	-21	.	.	.	-0.5	0.72	.	.
O=C(CSc1nnc(NC(=O)CN2CCOCC2)s1)Nc1ccccc1	-3	-0.4	5	.	.	.	0.0	0.74	.	.
S=c1[nH]nc(COc2ccccc2)n1/N=C/c1ccccc1Cl	.	.	-2	-24*	-11*	-3.5*	1.3	.	i	0.9
O=C(N/N=C/C=C/c1ccccc1)c1cc(C2CC2)[nH]n1	12	.	-1	3	0	-2.8	0.6	.	i	1.3
OC(C#CCN1CCCCC1)(c1ccccc1)c1ccccc1	2	3.9	4	2	4	0.7	0.1	0.66	i	-1.8
Cc1cc(C)c(NC(=O)Cn2nnc(C(=O)NCc3ccco3)c2N)c(C)c1	-1	2.2	-13	10	8	-3.3	1.4	0.65	i	4.5
CC(C)N1C(=O)CC(Nc2cccc3cccc(N)c23)C1=O (centres undefined)	.	3.7	.	8	11	6.4	.	0.7	i	8.9

Bioassay records (PubChem BioAssay)
